ClpP mod – qHTS Assay for Activators of ClpP | ATP-dependent Clp protease proteolytic subunit (Bacillus subtilis (strain 168)), P80244 | purified B. subtilis ClpP, FRET peptide cleavage, 20 min | Potency, µM (titrated, usually from 57.5 µM), for inactives: at the top dose activity change, negative = active | 1.9% of 340,000 active; active = well fitted falling curve with a large enough effect; inconclusive = small, poorly fitted or top-dose-only effect; inactive = no such curve, though single readings can be large or run the other way; further: potency means the concentration at half of the fitted maximal effect; the source files actives as falling curves though it sought activators and does not explain the sign; nearly all actives have a fitted effect of over 65% in size; many hits overshoot -100%
Target sequence (P80244 whole entry, looked up): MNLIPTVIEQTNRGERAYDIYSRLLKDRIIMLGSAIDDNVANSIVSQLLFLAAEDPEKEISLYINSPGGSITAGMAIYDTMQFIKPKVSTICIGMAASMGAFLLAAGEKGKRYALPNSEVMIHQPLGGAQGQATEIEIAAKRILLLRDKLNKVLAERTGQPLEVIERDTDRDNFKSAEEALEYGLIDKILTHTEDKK
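ClpP 10 microg/mL final, pH 8 Tris/KCl buffer with BSA, glycerol, Tween-20; compound pinned in; FRET-FV substrate; RT 20 min; Ex320/Em430; ΔFRET vs ADEP 5.8 microM, DMSO, no enzyme.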
TRPV1 potentiator – enhances activation of the human vanilloid receptor TRPV1; potentiation, % at 8.33 µM; Q8NER1; TRPV1-expressing cells, Fluo-8 calcium influx, capsaicin EC20 potentiation; host cell line not named in the record; control for the full effect not named in the record; 0.02% of 320,000 active; active means potentiation above 80%; inconclusive means 30% to 80%; inactive means below 30%; further: 0% is about no effect
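TRPV1-expressing cells were cultured overnight at 35.5C and loaded with Fluo-8 calcium dye for 40 to 90 min at room temperature. After a 10 s baseline, compound was added and calcium influx was read kinetically for 3 min (ex 480/em 520 nm).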
Menin-MLL FL inh – menin-MLL binding inhibition, fluorescein peptide; Fluorescence polarization, fluorescein-MLL peptide displacement from menin; FP activity change, % at 61.4 µM; 290,000 tested, under 10 active; AID 1766; inconclusive = falling polarisation curve, or a change in total fluorescence; inactive = total fluorescence flat and polarisation flat or rising; no compound was filed as active; the % refers to the polarisation; negative = inhibition;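 further: % of control where 0% means no effect; inhibitors lower the polarisation; unlabelled MLL peptide was the positive control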
D2 PAM – positive allosteric modulators of human D2 dopamine receptor; 0.23% of 360,000 active; potentiation, % (test concentration not listed); DiscoveRx D2 beta-arrestin cells, luminescence, 90 min; 100% = 57 uM dopamine signal; active = potentiation of 50% or more; inconclusive = 30% to 50%; inactive = 30% or less;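 further: compound concentration not given in the record; tested on top of an EC20 dose of dopamine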
Target sequence (P14416 whole entry, looked up): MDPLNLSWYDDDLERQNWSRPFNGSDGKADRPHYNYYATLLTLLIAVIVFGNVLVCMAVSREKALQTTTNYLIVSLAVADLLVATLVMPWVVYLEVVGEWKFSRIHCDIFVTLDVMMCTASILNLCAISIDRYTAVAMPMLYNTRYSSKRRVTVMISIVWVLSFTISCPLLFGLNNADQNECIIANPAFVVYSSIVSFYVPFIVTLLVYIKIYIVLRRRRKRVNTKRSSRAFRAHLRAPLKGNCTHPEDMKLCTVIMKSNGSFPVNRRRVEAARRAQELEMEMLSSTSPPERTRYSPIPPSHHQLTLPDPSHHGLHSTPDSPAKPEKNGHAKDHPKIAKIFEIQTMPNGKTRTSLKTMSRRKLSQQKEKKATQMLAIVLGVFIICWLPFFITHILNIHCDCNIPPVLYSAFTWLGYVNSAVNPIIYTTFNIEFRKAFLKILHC
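D2 cells co-treated with compound plus 50 nM dopamine (EC20) for 90 min at 37 deg C to detect potentiation. Beta-arrestin recruitment was read as enzyme-fragment luminescence after 1 h at ambient temperature. Full response was set by 57 uM dopamine.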
gsp antag – antagonizes gsp, the McCune-Albright syndrome mutation | gsp-mutant cells, cAMP HTRF, 30 min; control for the full effect not named in the record | 0.4% of 340,000 active | Potency, µM (doses to about 76.9 µM), for inactives: top-dose activity change, negative = inhibition, actives largely listed as inhibitors; active = falling curve of any shape with a large fitted effect; inconclusive = falling curve, mostly with a smaller effect; inactive = flat or rising curve; cell line not stated here;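 further: intracellular cAMP measured with PDE inhibitor Ro 20-1724 present during compound exposure; potency means the concentration at half of the fitted maximal effect; on the % scale 0 is the no-effect control and ±100 the full control effect; nearly all actives have a fitted effect of over 65% in size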
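Cells, 2000/well, grown 16–24 h in DMEM 10% FBS with 0.5 mg/ml G418, then compounds plus […] (300 uM addition stock), 30 min at 37C. cAMP read by HTRF (cAMP-d2 and anti-cAMP antibody-K in lysis buffer) after 30 min RT.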
gsp agonist – agonists of gsp mutant (McCune-Albright syndrome) | gsp mutant cells, cAMP HTRF, 30 min; control for the full effect not named in the record | 0.13% of 340,000 active | AID 624287 | Potency, µM (doses to about 76.9 µM), for the others: at the highest dose activation (cAMP increase), most hits filed as activators; active = well fitted activation curve with a large enough effect; inconclusive = small, poorly fitted or top-dose-only effect, or another doubt; inactive = no such curve, though single readings can be large or run the other way; cell line not stated here;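 further: phosphodiesterase inhibitor Ro 20-1724 added with compounds to block cAMP breakdown; potency means the concentration at half of the fitted maximal effect; nearly all actives have a fitted effect of over 60% in size; about a fifth of the inactives were tested at one dose only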
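Cells in DMEM/10% FBS with G418 were pretreated with compounds in DMSO plus […] (300 uM stock) for 30 min at 37C. cAMP was measured by HTRF (cAMP-d2 plus anti-cAMP antibody-K) after 30 min at room temperature.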
Sfp inh – Sfp phosphopantetheinyl transferase inhibition; Potency, µM, for inactives: max response, negative = inhibition, hits mostly inhibitors; 3.5% of 310,000 active; Q9F4F7; Biochemical Sfp PPTase activity, qHTS; active means well fitted inhibition curve with a large enough effect; inconclusive means small, poorly fitted or top-dose-only effect, or another doubt; inactive means no such curve, though single readings can be large or run the other way;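 further: the enzyme is Sfp with the accession as filed and its product quenches rhodamine fluorescence; potency means the concentration at half of the fitted maximal effect; 0% = enzyme reaction without inhibitor and -100% = no enzyme wells; top concentration of the series not given in the record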
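After 15 min at room temperature with compound, 15 nM Sfp received 5 uM rhodamine-CoA plus 12.5 uM BHQ-2-ybbR (50 mM Hepes pH 7.6, 10 mM MgCl2). Rate came from the fluorescence difference over 30 min, ex 525/em 598 nm.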
Numbers without * were called inactive; u = inconclusive; x = not tested or not shown; & = joins results of further samples; [ ] = dose if it differs, or a comment.

SMILES	ClpP mod	TRPV1 potentiator	Menin-MLL FL inh	D2 PAM	gsp antag	gsp agonist	Sfp inh
Cc1cc(C)cc(N(C(=O)c2csnn2)C(C(=O)NC(C)(C)C)c2ccccn2)c1 (stereo unspecified)	-1.9%	1	-10	-2	0%	5%	26%
O=C(Nc1cccc(Br)c1)C1CC(=O)N(C2CCCC2)C1 (stereo unspecified)	x	x	x	-6	6%	10%[15.4 µM]	x
O=C(Nc1ccc2c(c1)OCCO2)c1ccc(Br)c(S(=O)(=O)N2CCOCC2)c1	-1.1%	-4	0.6	13	u	-23%	9%
O=C(CSc1ccccc1)Nc1ccc(C(=O)Nc2cccc(O)c2)cc1	0.7%	0	-1.1	-1	-6%	12%	1%
CCN(CC)C(=O)C(=O)N/N=C/c1ccc(Cl)cc1Cl	x	8	-2.8	-4	-13%	-20%[15.4 µM]	-8%
O=C(COc1ccc2c(-c3ccccc3)cc(=O)oc2c1)NC1CCS(=O)(=O)C1 (stereo unspecified)	-1.9%	10	x	-5	-22%	x	x
Cc1ccc(NC(=O)c2ccncc2)cc1S(=O)(=O)N(C)C	0.4%	-24	-0.5	-18	6%	-3%	15%
CCCCCCN=C(C)C1=C(O)C(C(=O)OC)C(C)(C)CC1=O (stereo unspecified)	-1.1%	u	7.4	13	-7%	-11%	-18%
O=C1c2ccccc2C(=O)N1CCC(=O)N1CCc2ccccc21	-1.0%	x	x	5	-4%	41%	x
Cc1ccc(O)c(NC(=O)Cc2ccc3ccccc3c2)c1	0.1%	-12	0.6	1	-19%	20%[15.4 µM]	-2%
Cc1c(Cl)cccc1NC(=O)CSC(N)=O	x	10	-1.9	-5	7%	2%	5%
CC(C)N=C1CC(C)(C)CC(=O)/C1=C(/O)CCCN1C(=O)c2ccccc2C1=O	2.3%	-5	-12	-10	-22%	-6%	10%
Cc1cccc(C(=O)O[C@H]2[C@H](C)NS(=O)(=O)[C@H]3CC4C=C[C@]23O4)c1	-1.1%	x	x	-10	-5%	14%	x
Cc1ccc(C(=O)N2CC(=O)Nc3ccccc32)o1	0.6%	0	-0.8	-12	5%	0%[15.4 µM]	15%
COc1ccc(C(=S)N2CCCC2)cc1OC	0.7%	-7	-0.2	16	1%	-60%[inhibitor]	8%
NC(=S)c1ncc(C(F)(F)F)cc1Cl	-3.6%	x	1.0	-5	9%	0%[15.4 µM]	-12%
COCC1CCCCN1C(=O)c1cc(COc2ccc(C)c(C)c2)on1 (stereo unspecified)	1.3%	x	x	-16	x	u	x
C/C(=N/NC(=O)c1nnn(-c2nonc2N)c1CSc1ccc(C)cc1)c1ccncc1	2.7%	x	x	-3	x	-4%	x
COc1ccc(-n2c(=O)c3ccccc3n(CC(=O)NCC3CCCO3)c2=O)cc1 (stereo unspecified)	x	-7	-1.4	-1	6%	13%	15%
N#Cc1c(C(F)(F)F)cc(-c2ccccc2)n(N)c1=O	x	-26	4.7	-3	5%	26%	2%
CC(C)CN1CC(=O)N2C(c3ccccc3)c3[nH]c4ccccc4c3C[C@H]2C1=O (stereo partly specified)	1.0%	14	-7.6	7	-15%	-35%[inhibitor]	2%
Cn1c(CO)nc2cc(N)ccc21	-17%	-4	-4.1	-8	-1%	8%	-14%
CC(C)c1ccc(NS(=O)(=O)c2ccc(N3C(=O)CCC3=O)cc2)cc1	x	-16	0.8	0	-3%	-1%	-3%
CCOC(=O)C1CCN(S(=O)(=O)c2ccc3[nH]c(=O)c(=O)[nH]c3c2)CC1	x	5	-3.7	4	0%	6%[15.4 µM]	14%
CCN(C(=O)COC(=O)CCOc1cccc(C)c1)c1c(N)n(Cc2ccccc2)c(=O)[nH]c1=O	1.3%	1	x	-16	6%	-48%[inhibitor]	x
CC1CCCCC12NC(=O)N(CC(=O)Nc1sc3c(c1C(N)=O)CCC3)C2=O (stereo unspecified)	-0.2%	-1	u	-21	0%	u	-24%
COCCn1nnnc1C(c1cc2ccc(C)cc2[nH]c1=O)N(Cc1ccco1)Cc1cccs1 (stereo unspecified)	-14%	9	1.8	-4	-26%	7%	-16%
C=CCNC(=O)CSc1nc2scc(-c3ccco3)c2c(=O)n1CC=C	x	-5	7.8	1	-6%	0%[15.4 µM]	u
O=C(O)Cc1sc(-c2ccc(Cl)cc2)nc1-c1ccccc1	-24%	x	-0.7&0.7	0	u	13%	15%&11%
O=C(N[C@H]1C/C=C\C[C@H](CC(=O)N(CCO)Cc2ccccc2)C(=O)N[C@H](Cc2c[nH]c3ccccc23)COC1=O)OCC1c2ccccc2-c2ccccc21	-2.7%	x	x	-8	-9%	-33%[inhibitor]	x
Cc1cccc(-n2nc3c(c2NC(=O)C(C)C)CS(=O)(=O)C3)c1C	1.0%	22	0.4	-6	10%	5%	16%
O=C(NCCOc1ccccc1)C1=CC=CN2CCS(=O)(=O)N=C12	32µM*	x	x	4	5%	-5%[15.4 µM]	x
c1ccc(CNc2ncnc3sc4c(c23)CCC4)nc1	-6.9%	-17	3.8	-15	3%[15.4 µM]	18%	5%
COc1cccc(CC(=O)Nc2ccc(S(=O)(=O)Nc3nccs3)cc2)c1	527%	x	x	17	-18%	-48%[inhibitor]	x
O=C(CCN1C(=O)C2C3CCC(C3)C2C1=O)OCC(=O)c1ccccc1 (stereo unspecified)	-0.5%	-2	x	-5	-12%	5%	11%
COc1cc(/C=N\NC(=O)c2ccc(-c3ccccc3)cc2)cc(OC)c1OC(C)=O	u	1	x	-1	-6%	17%	6%
O=C(CN1C(=O)c2ccccc2C1=O)NCc1ccc(N2CCOCC2)cc1	-1.1%	-12	1.5	-18	1%	13%	9%
CCC1(C)COC(c2ccc3c(c2)OCO3)OC1 (stereo unspecified)	-9.0%	x	x	-27	13%	-1%[15.4 µM]	x
CN(CCc1ccccc1)C(=O)c1ccc(NC(=O)Cc2ccc([N+](=O)[O-])cc2)cc1	-1.5%	x	x	-1	u	-27%	x
CCOc1ccc(OCC)c(NC(=O)CSc2nnc(C3CC3)n2CC)c1	x	-1	x	2	1%	6%	17%
CCOC(=O)Nc1c(Cl)[nH]c(=O)n(C)c1=O	-1.5%	x	x	0	2%	5%[15.4 µM]	x
COC(=O)CC1C(=O)NCCN1C(=S)Nc1ccccc1 (stereo unspecified)	0.3%	2	6.9	-2	15%	13%[15.4 µM]	-27%
COc1ccc(OCc2ccc(C(=O)O)cc2)cc1	1.7%	-3	0.4	-1	2%	13%	8%
Cc1c(Cl)cccc1NC(=O)C1CCN(S(C)(=O)=O)CC1	x	-2	2.5	-3	4%	-13%[15.4 µM]	26%
O=C(O)CC(=O)NC12CC3CC(CC(C3)C1)C2	0.7%&-0.7%	3&-5	0.6&2.6	15&-2	0%&-2%	13%&-59%	7%&8%
COc1ccc(NS(=O)(=O)c2cccc(C(=O)NCC3(N4CCOCC4)CCCCC3)c2)cc1	-4.8%	0	x	-3	-4%	-1%[15.4 µM]	9%
CC1=CC=CC2=NC(=O)CC(C)(C(=O)N(CC(=O)NC3CCCC3)Cc3ccc(Cl)cc3)N12 (stereo unspecified)	x	2	x	-6	6%	4%[15.4 µM]	10%
Oc1ccccc1CNc1nccs1	-0.6%	9	8.7	-3	14%	-16%[15.4 µM]	13%
Cc1cc(C)cc(CSc2ccc(S(=O)(=O)N3CCCC3)cn2)c1	1.1%	9	x	0	11%	u	x
Cc1ccc(C(=O)c2c(C)oc3c2C(=O)C(=O)c2ccccc2-3)cc1	1.3%	-3	11	74*	-5%[15.4 µM]	8%	50µM*
O=C1CCN(S(=O)(=O)c2ccccc2)C2CCCCC12 (stereo unspecified)	-1.6%	-12	2.3	-1	6%	-39%[inhibitor]	11%
O=C(COC(=O)C1CCN(S(=O)(=O)c2cccs2)CC1)NCc1ccc(F)cc1	x	-12	4.6	-10	-9%	20%[15.4 µM]	-3%
COc1nc(N/N=C/c2ccc(C)cc2)nc(N2CCCCC2)n1	1.6%	-11	1.2	-11	4%	-2%	8%
Cc1ccc(/C=C/C(=O)Nc2cccnc2)o1	-4.5%	-16	1.3	-3	-11%	-2%[15.4 µM]	-15%
S=c1[nH]nc(COc2ccccc2)n1/N=C/C=C/c1ccccc1	-6.0%	9	7.1	3	0%	-1%	-13%
CCOc1ccccc1NCc1cc(=O)oc2cc(C)ccc12	x	-18	6.2	-2	-13%	9%[15.4 µM]	5%
Cc1sc(-c2ccncc2)nc1OC(=O)c1ccc(F)cc1F	x	-20	u	2	9%	12%[15.4 µM]	-10%
CCCN(CC(=O)Nc1ccccc1C)C(=O)COc1c(C)cccc1C	1.2%	-3	x	-2	6%	2%	x
Cc1ccc(NC(=O)CC(=O)c2ccc([N+](=O)[O-])cc2)cc1S(=O)(=O)Nc1cccc(Cl)c1	-0.6%	-8	-0.4	-1	-17%	-65%[inhibitor]	25%
CNc1nc(NCCOC23CC4CC(CC(C4)C2)C3)nc(OCC(F)(F)F)n1	3.5%	-17	-0.2	-19	-9%	u	16%
Later entries:
SMILES	ClpP mod	TRPV1 potentiator	Menin-MLL FL inh	D2 PAM	gsp antag	gsp agonist	Sfp inh
CCOC(=O)c1cccc(NC(=O)/C=C/c2cccc([N+](=O)[O-])c2)c1	0.4%	-2	-1.6	-1	-31%	-22%	6%
CCC(CC)C(=O)Nc1ccccc1-n1cccc1	-3.1%	0	-0.6	-3	-5%	-32%[inhibitor]	16%
CCn1c2ccccc2c2cc(NC(=O)c3cccc([N+](=O)[O-])c3C)ccc21	x	-3	7.9	-5	-5%	0%[15.4 µM]	7%
C1CCC(Nc2nc3nonc3nc2N2CCSCC2)C1	-0.8%	9	1.0	-5	-3%	9%	4%
COc1ccccc1N1CCN(C(=O)CN(C)S(=O)(=O)c2ccc3c(c2)c(=O)n(C)c(=O)n3C)CC1	x	-13	0.2	-1	-11%	0%	15%
COCCNc1cc(N)c([N+](=O)[O-])cc1[N+](=O)[O-]	-2.7%	-5	-0.6	-1	5%	-7%[15.4 µM]	-9%
Cc1ccc(C)c(NC(=S)N(C)CCO)c1	-0.1%	3	3.7	-4	18%	-4%[15.4 µM]	-14%
CCOc1ccc(-c2nnn(CC(=O)NCc3ccc(C)cc3)n2)cc1	x	0	-3.3	-3	7%	-5%[15.4 µM]	4%
O=C(Cn1cc2c(n1)CCCCC2)NCc1ccccn1	1.1%	2	-11	-2	1%	-15%	-12%

Screening results from PubChem BioAssay.
